# PABP FP inh – PABP poly(A) RNA binding inhibitors, primary screen, biochemical, fluorescence polarization, uHTS; actives 1% (n = 290,000); inhibition, % at 35 µM;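 active = 50% or more with normal probe brightness, or confirmed in later tests; inconclusive = above 50% with abnormal brightness, or retests that disagree; inactive = below 50% or failed in later tests; about a fifth of its hits are not listed in these tables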;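 note: calls also rest on retests at 20 µM and on dose response follow-up; controls were probe without protein and protein plus probe with vehicle; some compounds called inactive have numbers as strong as hits; many hits fall short of the cut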
# Target sequence (P11940 whole entry, looked up): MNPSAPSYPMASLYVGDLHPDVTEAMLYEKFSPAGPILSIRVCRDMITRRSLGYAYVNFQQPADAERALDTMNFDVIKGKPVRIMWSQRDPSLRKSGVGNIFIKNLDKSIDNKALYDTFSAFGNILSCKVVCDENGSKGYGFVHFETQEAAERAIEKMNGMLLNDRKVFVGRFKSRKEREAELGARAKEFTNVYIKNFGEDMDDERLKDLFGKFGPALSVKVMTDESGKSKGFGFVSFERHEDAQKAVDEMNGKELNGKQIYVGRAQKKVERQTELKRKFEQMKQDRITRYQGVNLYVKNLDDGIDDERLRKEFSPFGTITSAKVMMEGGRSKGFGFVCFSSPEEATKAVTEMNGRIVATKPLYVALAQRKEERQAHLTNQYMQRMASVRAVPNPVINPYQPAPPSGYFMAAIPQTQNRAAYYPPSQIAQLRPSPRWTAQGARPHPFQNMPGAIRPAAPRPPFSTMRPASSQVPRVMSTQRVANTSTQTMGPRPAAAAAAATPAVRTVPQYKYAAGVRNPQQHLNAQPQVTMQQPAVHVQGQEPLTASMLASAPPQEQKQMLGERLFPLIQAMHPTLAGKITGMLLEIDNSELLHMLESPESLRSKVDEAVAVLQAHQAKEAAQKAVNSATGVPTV
# eIF4H inh – human eIF4H binding inhibitors, primary screen, translation initiation inhibitor project, biochemical, uHTS, fluorescence polarization; Eukaryotic translation initiation factor 4H (Homo sapiens), Q15056; eIF4H fluorescence polarization binding assay; inhibition, % at 35 µM; actives 0.94% (n = 290,000); AID 2012, 2009;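 active = 50% or more with normal probe brightness, or confirmed in later tests; inconclusive = above 50% with abnormal brightness, or retests that disagree; inactive = below 50% or failed in later tests; about a fifth of its hits are not listed in these tables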;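 note: calls also rest on retests at 20 µM and on dose response follow-up; 0% = protein and probe with vehicle and 100% = probe without protein; strong numbers were not always called active; many hits fall short of the cut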
# HIV Env fusion – inhibitors of HIV-1 Env-driven cell-cell fusion, primary screen, HeLa-JRFL effector, CEM21 target cells, luciferase; inhibition, % at 12.3 µM; actives 1.1% (n = 360,000);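 active = mean replicate inhibition score of at least 50 and every replicate individually at or above 50; inconclusive = only one of the two criteria met; inactive = mean below 50 and not all replicates reaching 50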;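 note: 0% = plate neutral controls and 100% = maraviroc near 300 nM; one replicate is shown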
# Rce1 inh – yeast Rce1p protease inhibitors, primary screen, biochemical, fluorescence, cell-free homogeneous | AID 2563, 2010 | CAAX prenyl protease 2 (Saccharomyces cerevisiae (strain ATCC 204508 / S288c)), Q03530 | calls only | actives 0.27% (n = 290,000) | yeast membranes, quenched prenylated peptide cleavage fluorescence;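 active = fall in fluorescence gain of 50% or more versus controls, with final raw signal at or below 3038400; inconclusive = same 50% fall but final raw signal above 3038400; inactive = fall in fluorescence gain under 50%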;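 note: plate controls were neutral control wells for no effect and wells lacking membranes for full effect; tested at 10 µM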
# Target sequence (Q03530 whole entry, looked up): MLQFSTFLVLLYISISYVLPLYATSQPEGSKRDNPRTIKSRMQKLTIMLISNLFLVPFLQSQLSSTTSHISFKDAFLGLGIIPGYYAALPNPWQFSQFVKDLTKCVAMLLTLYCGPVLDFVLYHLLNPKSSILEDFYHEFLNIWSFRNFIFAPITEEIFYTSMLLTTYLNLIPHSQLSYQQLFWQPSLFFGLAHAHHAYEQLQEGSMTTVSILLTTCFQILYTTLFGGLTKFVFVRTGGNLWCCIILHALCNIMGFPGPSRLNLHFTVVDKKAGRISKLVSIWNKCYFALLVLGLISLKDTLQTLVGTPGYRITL
# Yeast UUG start – modulators of yeast start codon fidelity, primary screen, whole organism, S. cerevisiae, single point, plate reader; activity score, % at 18.7 µM; actives 0.13% (n = 350,000); AID 602363, 2012; S. cerevisiae UUG-firefly luciferase reporter, luminescence/redox ratio;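 active = replicate mean at a twofold rise or more, about +100% in these data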;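 note: firefly luciferase made from a UUG start codon reports start codon fidelity; reporter light over untreated wells divided by growth signal over untreated wells; some hits fall short of that in this replicate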
# MT1-MMP act inh – blockers of MT1-MMP proenzyme processing, primary screen, HT1080 RFP-PRO-GFP cells, GFP/RFP fluorescence | Matrix metalloproteinase-14 (Homo sapiens), P50281 | GFP/RFP ratio fluorescence, overnight; percent of plate control window, DMSO zero | GFP/RFP ratio change, % at 20 µM | actives 0.061% (n = 360,000) | AID 651647, 2012;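 active = GFP/RFP ratio change of at least 30% with cell ATP level not reduced by more than half and red fluorescence within 50% of control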; note: strong numbers were not always called active
#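 Assay system: HT1080 RFP-PRO-GFP cells. Benchmarks: DMSO vehicle wells and RFP-L50D-GFP reporter cell wells. Times: overnight cell settling, then overnight compound exposure, 37 °C, 5% CO2. Compound: 20 µM single dose, 1% DMSO. Read-out basis: GFP/RFP fluorescence ratio.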
# CSC inhib – cancer stem cell viability inhibitors, primary screen, luminescence | actives 1.1% (n = 300,000) | inhibition, % at 7.5 µM | cancer stem cell-like cells viability | AID 2717, 2010;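 active = mean at 75% or more and at least half the replicates too; inconclusive = mean and replicates disagree; tested in HMLE shEcad cells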;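 note: 0% = median of negative and 100% = median of positive control wells; the first replicate is given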
# eIF4H inh retest – recorded beside eIF4H inh, whose call it bears; inhibition, %; compound at 20 µM; confirmation average;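 mean of two retest wells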
# PABP FP inh retest – also measured in PABP FP inh; calls as there; inhibition, %; compound at 20 µM; confirmation repeats;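 mean of two retest wells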
# MT1-MMP act inh RFP – further read-out of MT1-MMP act inh, marked with its call; RFP signal change, %; measured here: RFP expression control read;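 0 = vehicle wells; hits needed this value within 50% of zero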
# Numbers without * were called inactive; i = inactive; u = inconclusive; x = not tested or not shown. An excerpt. The share of hits here may be higher or lower than overall.
SMILES,PABP FP inh,eIF4H inh,HIV Env fusion,Rce1 inh,Yeast UUG start,MT1-MMP act inh,MT1-MMP act inh RFP,CSC inhib,others
Cc1ccc(Nc2cnn(C34CC5CC(CC(CC(=O)O)(C5)C3)C4)c(=O)c2Cl)cc1C,0,0,15,i,3,-3,1,x,
Cc1cccc(N=C2NC(=O)/C(=C/C=C/c3ccco3)S2)c1,0,87,-11,i,x,-2,10,58,eIF4H inh retest=-1;PABP FP inh retest=1
O=C(Oc1cccc(OC(=O)N2CCCCC2)c1)N1CCCCC1,0,1,5,i,-8,-2,-6,-5,
COc1ccccc1-c1cc(C(F)(F)F)nc(S(=O)(=O)CCCC(=O)NC(C)C)n1,-4,-16,x,i,-6,8,-9,29,
CCOC(=O)c1c(C)[nH]c(C)c1S(=O)(=O)Nc1ccc(CN2CCCCC2)cc1,-1,4,-1,i,-6,3,9,31,
c1ccc(Nc2nc(N3CCOCC3)nc(N3CCOCC3)n2)cc1,8,-2,x,i,x,-9,-3,x,
Cc1c(C(=O)C(=O)N2c3ccccc3CC2C)c2ccccc2n1C (centres undefined),2,2,6,i,x,1,-6,51,
C[C@H]1COC(=O)[C@@H](Cc2ccc(F)cc2)CC/C=C/C[C@@H](CC(=O)N(CCO)Cc2ccccc2)C(=O)N1,x,x,-5,x,2,10,-4,-12,
Cc1cccc(NC(=O)c2ccc3c(c2)OCCO3)c1C,0,2,-11,i,-19,-3,4,4,
CCCCCNC(=O)Cn1c(=O)c2c(ncn2CC(C)C)n(Cc2ccccc2)c1=O,2,-11,1,i,9,-2,-2,1,
COc1cccc(CNC(=O)c2cc3c(C)nc4ccccc4c3o2)c1,12,3,4,i,5,-4,-24,12,
CC(=O)Nc1ccc(S(=O)(=O)NNC2=NS(=O)(=O)c3ccccc32)cc1,-10,-3,3,i,-21,2,-2,0,
CC1(C(=O)Nc2cccc3cccnc23)CCN1C(=O)CC1CC1 (centres undefined),x,x,-2,x,-2,4,-5,x,
C=CCn1cnc2c(nnn2-c2cc(C)cc(C)c2)c1=O,1,-1,-6,i,x,4,1,-9,
CCCn1c(N)c(N2CCCCC2)c(=O)n(CC(=O)Nc2ccccc2)c1=O,8,3,x,i,x,1,3,-6,
CCc1cccc(CC)c1NC(=O)CSc1nc2ccc(N3C(=O)C4C(C3=O)[C@H]3C=C[C@@H]4C3)cc2s1 (some centres undefined),-13,-3,x,i,-4,29,-19,-1,
Cn1c(SCC(=O)Nc2nc3ccccc3s2)nnc1-c1ccccc1,2,1,-86,x,-3,-8,-1,18,
O=C(Nc1ccc(Br)cc1)c1ccc(F)c(S(=O)(=O)N2CCN(c3ccccn3)CC2)c1,12,-9,26,i,x,-5,-24,24,
CN(CC(=O)Nc1ccc(Cl)c(C(F)(F)F)c1)C(=O)c1cnccn1,x,x,x,x,-1,12,3,-11,
COc1ccc2cc(OC)c(C(=O)N3CCOCC3)cc2c1,-2,-3,2,i,x,6,5,-14,
Cc1c(O)ccc2c(CN3CCN(C/C=C/c4ccccc4)CC3)cc(=O)oc12,-7,-8,5,i,x,-9,-24,47,
Cc1ccc(NS(=O)(=O)c2ccccc2F)cc1S(=O)(=O)N1CCCCCC1,x,x,1,x,-19,-3,0,x,
Cn1cc(Cl)c(C(=O)OCC(=O)Nc2ccccc2)n1,-10,1,x,i,-2,2,2,1,
O=C(Nc1nnc(C2CCCO2)s1)c1ccc(Br)cc1 (centres undefined),-4,-8,x,x,3,5,2,3,

# Among those listed so far, these have an aryl thioether with sulfur outside any ring:
SMILES,PABP FP inh,eIF4H inh,HIV Env fusion,Rce1 inh,Yeast UUG start,MT1-MMP act inh,MT1-MMP act inh RFP,CSC inhib,others
CCc1cccc(CC)c1NC(=O)CSc1nc2ccc(N3C(=O)C4C(C3=O)[C@H]3C=C[C@@H]4C3)cc2s1 (some centres undefined),-13,-3,x,i,-4,29,-19,-1,
Cn1c(SCC(=O)Nc2nc3ccccc3s2)nnc1-c1ccccc1,2,1,-86,x,-3,-8,-1,18,

# Other records.
SMILES,PABP FP inh,eIF4H inh,HIV Env fusion,Rce1 inh,Yeast UUG start,MT1-MMP act inh,MT1-MMP act inh RFP,CSC inhib,others
Nc1c2c(nc3ccccc13)N(c1ccccc1)CC2,14,11,x,i,-2,0,1,x,
CC(=O)Oc1ccc(/C=c2\sc3ncnn3c2=O)cc1,15,18,-30,i,-19,-4,-1,-3,
CCC1CCc2sc(C(=O)OCC(=O)N(CCOC)c3c(N)n(Cc4ccccc4)c(=O)[nH]c3=O)cc2C1 (centres undefined),x,x,-140,i,-9,-6,-5,-11,
CCN(CC)C(=O)c1ccc(N)cc1,-1,-2,-3,i,-1,1,4,2,
C=CCn1cnc2c(c1=O)c1nc3ccccc3nc1n2-c1ccc(C)cc1,1,6,x,i,x,x,x,x,
CCCCC(CC)C(=O)Nc1cc(C(=O)NCCC)ccc1N1CCC2(CC1)CC(c1ccccc1)=NO2 (centres undefined),-8,-2,33,i,-4,-3,-4,-18,
Cc1ccc(N2CCN(c3ccc(C)cc3)C2c2cccnc2)cc1,15,11,x,i,-10,1,-8,1,
O=C(NC(NC(=S)Nc1ccccc1O)C(Cl)(Cl)Cl)c1ccco1 (centres undefined),5,-4,19,i,x,-3,1,10,
CCCN1CCN(CCCNC(=O)Cn2nc(C)n3c(cc4cc(OC)ccc43)c2=O)CC1,x,x,-4,i,9,-1,3,6,
Cc1c(C)c2c(OCC(=O)N[C@@H](C)C(=O)O)cc3c(c2oc1=O)CCC(C)(C)O3,10,1,12,i,7,4,2,-2,
COc1ccc(C2NC(c3ccc(OC)c(OC)c3OC)C(C)C(=O)C2C)c(OC)c1OC (centres undefined),7,5,-64,i,8,10,4,-13,
CCOc1ccccc1N1CCN(S(=O)(=O)c2ccc3c4c(cccc24)C(=O)N3)CC1,43,48,-15,i,-10,-5,-2,-3,
O=C(/C=C/c1cccc([N+](=O)[O-])c1)NCCSCc1ccc(Cl)cc1,-3,-11,23,i,x,5,5,5,
COC(=O)C(c1ccccc1)C1(O)CC(C)N(C)CC1C (centres undefined),5,-5,14,i,-21,2,1,-17,
c1ccc(CNc2nc(NCc3ccccc3)c3sccc3n2)cc1,x,x,u,x,2,-1,-16,x,
CCC(C)NC(=O)C1CCCN(S(=O)(=O)c2ccc3c(c2)CC(C)N3C(=O)C2CC2)C1 (centres undefined),-14,-2,-8,i,-15,-4,-1,16,
CCn1c(CSc2nc(C)cs2)nc2cc(S(=O)(=O)N(C)C)ccc21,3,-8,-12,i,-22,1,0,-5,
CCOCCCn1c(=S)[nH]c2cc(C(=O)N3CCN(C)CC3)ccc2c1=O,-6,1,-52,i,-1,0,-2,-6,
COc1ccccc1N1CCN(C2CCCN(C(=O)CC(F)(F)F)C2)CC1 (centres undefined),3,-3,13,i,-32,-1,5,-11,
C=CCn1c2ccccc2c2nnc(SCC(=O)OCN3C(=O)c4ccccc4C3=O)nc21,2,0,x,i,-6,5,3,1,
Cc1cccc(Cl)c1NC(=O)N1CCN(c2ccnc3cc(Cl)ccc23)CC1,-1,-3,13,i,x,-5,-13,-6,
CCN1C(=O)[C@H]2[C@H]3CN=C(SCc4ccc(C(=O)OC)cc4)N3[C@@](Cc3ccccc3)(C(=O)OC)[C@H]2C1=O,x,x,12,x,-8,0,-1,x,
CC(c1ccccn1)N(C)C(=O)c1ccc2nc(Cc3ccccc3F)oc2c1 (centres undefined),-4,-7,-70,i,-10,0,-1,4,
COc1ccc(C(=O)Nc2nnc(-c3ccccc3)o2)cc1OC,-2,-3,x,i,-24,10,6,18,
CN(C)c1ccc(C2N3CC4(C)CN2CC(C)(C3)C4O)cc1 (centres undefined),-4,-2,-5,i,-13,-1,4,-10,
Cc1ccc(C2C(C(=O)c3cccs3)=C(O)C(=O)N2c2nnc(C)s2)cc1 (centres undefined),1,76,-76,i,x,-196,-2,-8,eIF4H inh retest=1;PABP FP inh retest=-2
COc1ccc(N2CC(C(=O)Nc3nnc(Cc4ccccc4)s3)CC2=O)cc1 (centres undefined),4,6,-3,i,1,0,-1,x,
COCCN(CCOC)C(=O)CCn1c(=O)oc2ccccc21,27,3,-19,i,6,3,6,1,
CC1=C(C)CC(C(=O)Nc2nc(C)cs2)C(C(=O)O)C1 (centres undefined),-6,-3,-2,i,-2,-3,-2,-11,
CCOC(=O)c1ccc(NC(C)=O)c([N+](=O)[O-])c1,1,-11,3,i,-16,2,0,0,
CC(=O)Nc1ccc(NC(=O)C2CC(=O)N(C(C)C)C2)cc1 (centres undefined),-16,-8,-5,i,-18,0,0,-19,
CCOc1cc(/C=N/NC(=O)c2cccc(S(=O)(=O)N3CCOCC3)c2)ccc1OCC(=O)N(C)C,x,x,-3,i,-6,2,2,-12,
C/C(=N\NC(=O)c1n[nH]c2c1CCC2)c1ccco1,0,-1,22,i,-45,0,5,12,
CCOC(=O)c1sc2nc(CC(=O)OC)nc(N(C)CCc3ccccn3)c2c1C,-8,4,9,i,x,0,2,x,
CC(C)c1ccc(CNCCCSc2ncccn2)cc1,10,-4,-121,i,-6,1,2,-16,
COC(=O)C1CCN(c2cnccn2)CC1,4,3,0,i,x,4,3,-7,
O=C(Nc1ccccc1NS(=O)(=O)c1ccc(F)cc1)C1CCCC1,4,-5,u,i,11,-1,0,6,
C/C(=C\c1ccccc1)CN1CCN(C(C)C)C(CCO)C1 (centres undefined),6,6,0,i,-3,-3,0,31,
CSc1nnc(-c2ccc(S(=O)(=O)N3CCCC3)cc2)n1C,6,-2,31,i,25,-3,4,-5,
N/C(=N\S(=O)(=O)c1ccccc1)c1ccc([N+](=O)[O-])cc1,22,2,18,i,x,1,0,1,
COc1ccc(OCC(O)Cn2ccnc2C)cc1 (centres undefined),-4,-6,x,i,-5,0,2,-8,
O=C(NCc1ccccc1C(F)(F)F)C1CC(c2ccc(C(F)(F)F)cc2)=NO1 (centres undefined),9,-10,-1,i,-14,2,-3,8,
CC(Sc1nnc(-c2ccc(Cl)cc2)n1C)C(N)=O (centres undefined),-4,-32,-106,x,-6,-2,-1,-17,
Nc1nc(SCC(=O)Nc2ccc(Br)cc2Br)n[nH]1,x,x,-3,x,-16,10,-2,18,
O=C(Cc1n[nH]c(=O)c2ccccc12)NCc1ccc(Cl)cc1,1,-14,12,i,-12,4,-18,-14,
N#Cc1nc(Cc2cccc3ccccc23)oc1N1CCC(C(N)=O)CC1,37,7,x,i,-4,-1,0,-8,
CCOCCn1ccc2c(OCC(=O)Nc3cc(OC)ccc3OC)cccc2c1=O,x,x,x,i,-2,2,-10,-4,
C[C@H](NC(=O)c1ncn(Cc2ccccc2)c1C(=O)N[C@@H](C)c1ccccc1)c1ccccc1,x,x,4,x,-24,-7,-12,35,
O=C(CSc1nnc(CNC(=O)c2ccco2)o1)Nc1ccccc1C(F)(F)F,3,-17,6,i,x,0,0,-14,
COc1ccc(OC)c(S(=O)(=O)N2CCCc3ccccc32)c1,1,-5,x,i,6,-2,-7,0,

# Source: PubChem (several laboratories)
